Source: PubChem (several laboratories)
RGS16-Gao HTS – modulators of RGS16 binding to Galphao, primary screen, biochemical, human proteins, multiplexed bead flow cytometry. AID 1441, 2008. hit rate 0.38% among 220,000. Regulator of G-protein signaling 16 (Homo sapiens) + Guanine nucleotide-binding protein …. bead-based flow cytometry RGS16-Galphao binding, fluorescence; actives lie on both sides. binding response (% of control), % at 10 µM;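 active means below 25% or above 175%, edge rows of some plates excepted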;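 further: Galphao activated by GDP with aluminum fluoride before binding; 100% = wells without compound and 0% = beads without RGS; some results beyond the cut were filed as inactive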
Insulin prom inh – inhibitors of insulin promoter-driven GFP, primary screen, imaging, TRM-6 cells (human fetal islet line), eGFP reporter, cell count; hit rate 0.9% among 130,000; reporter expression induced with tamoxifen; inhibition, % at 2 µM;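 active means inhibition above the mean plus 3 SD, with well images judged a real hit on visual review, cut at about 60% in these data, passing the limit was not always enough; inconclusive means inhibition over the cutoff but images rejected on review; inactive means inhibition not above the cutoff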
GALR2 agonist – GALR2 receptor agonists, primary screen, cell-based. GALR2-expressing cells, agonist activation read-out. activation, %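 (tested at 5 µM)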. hit rate 0.48% among 140,000. AID 803, 2007;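 active means above mean plus 3 SD of all compounds, about 5% in these data, not always enough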;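 further: 0% = vehicle buffer wells and 100% = reference agonist at full effect; tested in CHO reporter cells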
PKD1 kinase inh – inhibitors of human PKD1 kinase, biochemical, fluorescence polarization. PKD1 kinase fluorescence polarization assay. inhibition, %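 (about 10 µM by stock and volumes)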. hit rate 0.056% among 200,000. AID 797, 2007;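 active means inhibition of 50% or more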;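 further: controls were vehicle for no effect and a reference inhibitor for full effect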
Target sequence (Q15139 whole entry, looked up): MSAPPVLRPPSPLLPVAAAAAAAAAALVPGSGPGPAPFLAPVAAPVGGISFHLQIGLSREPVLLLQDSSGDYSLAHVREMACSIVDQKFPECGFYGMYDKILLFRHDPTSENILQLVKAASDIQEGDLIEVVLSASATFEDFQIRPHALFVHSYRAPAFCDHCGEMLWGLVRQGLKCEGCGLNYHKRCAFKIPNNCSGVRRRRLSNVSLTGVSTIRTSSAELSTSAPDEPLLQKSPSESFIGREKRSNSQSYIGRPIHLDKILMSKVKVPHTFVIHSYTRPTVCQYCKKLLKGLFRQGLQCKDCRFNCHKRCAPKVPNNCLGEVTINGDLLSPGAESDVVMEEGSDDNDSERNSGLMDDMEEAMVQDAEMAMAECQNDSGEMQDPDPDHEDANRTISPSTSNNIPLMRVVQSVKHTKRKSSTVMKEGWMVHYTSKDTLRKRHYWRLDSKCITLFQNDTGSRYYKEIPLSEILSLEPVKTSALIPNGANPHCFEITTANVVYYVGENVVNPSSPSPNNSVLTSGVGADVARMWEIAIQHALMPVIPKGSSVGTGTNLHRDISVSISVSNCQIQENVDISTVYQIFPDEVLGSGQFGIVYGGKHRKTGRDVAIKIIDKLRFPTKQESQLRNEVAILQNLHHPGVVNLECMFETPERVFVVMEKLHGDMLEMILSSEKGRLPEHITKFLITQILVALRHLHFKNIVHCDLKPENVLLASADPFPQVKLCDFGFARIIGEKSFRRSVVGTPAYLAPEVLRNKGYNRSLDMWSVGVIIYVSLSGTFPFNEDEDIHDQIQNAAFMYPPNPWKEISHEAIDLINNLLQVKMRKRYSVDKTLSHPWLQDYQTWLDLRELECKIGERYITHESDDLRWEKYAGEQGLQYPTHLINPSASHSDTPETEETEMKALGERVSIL
HSV augment – enhancers of HSV replication in host cells, fold increase, host cell viability. maximum fold increase. HSV replication augmentation in cells. hit rate 0.005% among 220,000;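 active means peak rise of 1.5-fold or more in the series; inconclusive means self-fluorescent or not available for retest; tested in PC3 cells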;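 further: first round at 10 µM; read as green reporter fluorescence; hits show the peak of a series up to 25 µM; 1 = signal of infected wells without compound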
Insulin prom inh cell count – further read-out of Insulin prom inh, marked with its call; normalized cell count, %; measured here: cell count, toxicity; reference of the scale not given here;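 cells exposed to compound for 48 h; stained nuclei by imaging scaled within each plate; lower means fewer cells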
HSV augment primary fold – second read-out of HSV augment, no call of its own (marks repeat the call); fold increase; compound at 10 µM; measured here: primary screen fold increase 10 uM; tested in PC3 cells;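 GFP signal in the first replicate; 1 = infected wells without compound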
* hit, by the source's call.

For Cn1c(CC(=O)Nc2ccc(Cl)c(Cl)c2)nnc1SCC(=O)Nc1nccs1 the results were RGS16-Gao HTS 107, Insulin prom inh -4, GALR2 agonist -2.6, PKD1 kinase inh -10, HSV augment inactive, Insulin prom inh cell count 116 and HSV augment primary fold 0.93.
For CCN(CC)C(=O)Nc1ccc(Br)cc1 the results were RGS16-Gao HTS 104, PKD1 kinase inh 0, HSV augment inactive and HSV augment primary fold 1.
For N#CC1=C(N)Nc2ncnn2C1c1ccccc1 (centres undefined) the results were RGS16-Gao HTS 92, Insulin prom inh 26, GALR2 agonist -0.4, PKD1 kinase inh -2, HSV augment inactive, Insulin prom inh cell count 114 and HSV augment primary fold 0.95.
`COc1ccc2nc3c(cc2c1)c(NC(=O)c1cccs1)nn3CC(C)C` gave RGS16-Gao HTS 107, Insulin prom inh -25, GALR2 agonist 3.6, PKD1 kinase inh -4 and Insulin prom inh cell count 51.
COc1cc(C)ccc1OCCCCOc1ccccc1C(C)=O was read as RGS16-Gao HTS 104, Insulin prom inh -17, GALR2 agonist -0.2, PKD1 kinase inh -7, HSV augment inactive, Insulin prom inh cell count 94 and HSV augment primary fold 0.97.
Screening COc1ccc(/C=C2\CCc3ccccc3C2=O)cc1OC returned RGS16-Gao HTS 105, Insulin prom inh 27, GALR2 agonist -2.0, PKD1 kinase inh -4, HSV augment inactive, Insulin prom inh cell count 131 and HSV augment primary fold 0.9.
Screening CN(c1ccc(C(=O)NC2CC2)cc1)S(=O)(=O)c1ccccc1 returned RGS16-Gao HTS 100, Insulin prom inh 20, GALR2 agonist -2.5, PKD1 kinase inh -2, HSV augment inactive, Insulin prom inh cell count 157 and HSV augment primary fold 0.99.
Cc1nn(C)c(C)c1/C=N/O was read as RGS16-Gao HTS 95, Insulin prom inh -41, GALR2 agonist -4.5, PKD1 kinase inh 4, HSV augment inconclusive and Insulin prom inh cell count 143.
Screening CCN(CCNC(=O)CCCn1nc(C)n2c(cc3sccc32)c1=O)c1ccccc1 returned RGS16-Gao HTS 101, GALR2 agonist -2.5, PKD1 kinase inh 2, HSV augment inactive and HSV augment primary fold 0.83.
Cc1ccc(C(=O)NC(=S)Nc2cc(-c3nc4ccccc4s3)ccc2C)cc1 was read as RGS16-Gao HTS 98, Insulin prom inh -21, GALR2 agonist -1.9, PKD1 kinase inh 4 and Insulin prom inh cell count 136.
COCCCn1c(SCC(=O)Nc2ccccc2)nnc1-c1ccncc1 was read as RGS16-Gao HTS 114, Insulin prom inh -6, GALR2 agonist -2.1, PKD1 kinase inh -3, HSV augment inactive, Insulin prom inh cell count 131 and HSV augment primary fold 1.1.
Screening COc1ccc(C(=O)NCc2ccc3c(c2)OCO3)cc1S(=O)(=O)N(C)Cc1ccccc1 returned RGS16-Gao HTS 102, GALR2 agonist -0.5, PKD1 kinase inh -4, HSV augment inactive and HSV augment primary fold 0.97.
For CCc1ccc2nc(N3C(=O)c4oc5ccccc5c(=O)c4C3c3ccc(OC)c(OC)c3)sc2c1 (centres undefined) the results were RGS16-Gao HTS 85, Insulin prom inh 39, GALR2 agonist 0.1, PKD1 kinase inh 1, HSV augment inactive, Insulin prom inh cell count 79 and HSV augment primary fold 1.1.
Screening CC(C)c1ccc(/C=C/C(=O)Nc2nn[nH]n2)cc1 returned RGS16-Gao HTS 95, PKD1 kinase inh -2, HSV augment inactive and HSV augment primary fold 0.97.
Screening N/C(=N\OC(=O)CC1CCCCC1)c1ccncc1 returned RGS16-Gao HTS 104, PKD1 kinase inh -5, HSV augment inactive and HSV augment primary fold 1.1.

Among those listed so far, these contain an aryl thioether with sulfur outside any ring.
For Cn1c(CC(=O)Nc2ccc(Cl)c(Cl)c2)nnc1SCC(=O)Nc1nccs1 the results were RGS16-Gao HTS 107, Insulin prom inh -4, GALR2 agonist -2.6, PKD1 kinase inh -10, HSV augment inactive, Insulin prom inh cell count 116 and HSV augment primary fold 0.93.
COCCCn1c(SCC(=O)Nc2ccccc2)nnc1-c1ccncc1 was read as RGS16-Gao HTS 114, Insulin prom inh -6, GALR2 agonist -2.1, PKD1 kinase inh -3, HSV augment inactive, Insulin prom inh cell count 131 and HSV augment primary fold 1.1.

Other records
For CCC(O)(CC)C(=O)NN(C(=O)Nc1csc2c1CCCC2)c1ccccc1 the results were RGS16-Gao HTS 92, Insulin prom inh -21, GALR2 agonist -1.7, PKD1 kinase inh 3, HSV augment inactive, Insulin prom inh cell count 94 and HSV augment primary fold 0.89.
For Cc1ccccc1CNC(=O)c1ccccc1C(=O)O the results were RGS16-Gao HTS 98, Insulin prom inh 38, GALR2 agonist -2.1, PKD1 kinase inh 0, HSV augment inactive, Insulin prom inh cell count 93 and HSV augment primary fold 0.91.
For Cn1cccc1Cc1nnc(SCC(=O)Nc2ccccc2)n1-c1ccc(F)cc1 the results were RGS16-Gao HTS 108, GALR2 agonist -1.1, PKD1 kinase inh -7, HSV augment inactive and HSV augment primary fold 1.2.
For Cc1cccc(Nc2c3c(nc4ncnn24)CCC3)c1 the results were RGS16-Gao HTS 100, PKD1 kinase inh -9, HSV augment inactive and HSV augment primary fold 0.92.
Cc1cccc(OCC(=O)N2CCN(C(=O)CCC3CCCC3)CC2)c1 was read as RGS16-Gao HTS 109, GALR2 agonist -1.3, PKD1 kinase inh 5, HSV augment inactive and HSV augment primary fold 0.96.
Screening COC(=O)Cn1ncc2c3ccccc3n(Cc3ccccc3)c2c1=O returned RGS16-Gao HTS 96, Insulin prom inh -43, GALR2 agonist -2.6, PKD1 kinase inh -5, HSV augment inactive, Insulin prom inh cell count 89 and HSV augment primary fold 0.86.
`CN(C)CCNc1nc(-c2ccccc2)c2c(c1C#N)CC(C)(C)OC2` gave RGS16-Gao HTS 101, Insulin prom inh -23, GALR2 agonist -2.1, PKD1 kinase inh -5, HSV augment inactive, Insulin prom inh cell count 86 and HSV augment primary fold 0.84.
`N#Cc1ccc(C(=O)Nc2nc(SCc3ccc(Cl)cc3)n[nH]2)cc1` gave RGS16-Gao HTS 101, PKD1 kinase inh -2, HSV augment inactive and HSV augment primary fold 0.73.
COC(=O)C1C(=O)C2=C(CC1C)NC(C)=C(C(=O)OC1CCCC1)C2c1ccc(N(C)C)cc1 (centres undefined) was read as RGS16-Gao HTS 107, Insulin prom inh 0, GALR2 agonist -2.3, PKD1 kinase inh -7, HSV augment inactive, Insulin prom inh cell count 134 and HSV augment primary fold 0.98.
For Cc1noc(C)c1S(=O)(=O)Nc1ccc(C(=O)NCc2ccccc2)cc1 the results were RGS16-Gao HTS 100, GALR2 agonist -2.1, PKD1 kinase inh 5, HSV augment inactive and HSV augment primary fold 0.98.
`Cc1ccc(-c2nn(C)c(=O)c3ccccc23)cc1S(=O)(=O)NCCO` gave RGS16-Gao HTS 100, Insulin prom inh 55, GALR2 agonist 2.3, PKD1 kinase inh 2, HSV augment inactive, Insulin prom inh cell count 57 and HSV augment primary fold 0.91.
Screening CC(=O)NS(=O)(=O)c1cccnc1Nc1ccc(Cl)c(Cl)c1 returned RGS16-Gao HTS 90, Insulin prom inh 33, GALR2 agonist -1.6, PKD1 kinase inh -1, HSV augment inactive, Insulin prom inh cell count 138 and HSV augment primary fold 0.91.
For Cc1cc(C(F)F)n2nc(C(=O)NCc3ccccc3F)nc2n1 the results were RGS16-Gao HTS 89, Insulin prom inh -73, GALR2 agonist -2.2, PKD1 kinase inh -12, HSV augment inactive, Insulin prom inh cell count 107 and HSV augment primary fold 0.84.
`CCCCNCCOCCOc1ccc(F)cc1` gave RGS16-Gao HTS 112, Insulin prom inh -5, GALR2 agonist -2.0, PKD1 kinase inh 1, HSV augment inactive, Insulin prom inh cell count 125 and HSV augment primary fold 0.93.
For Cc1ccc(N(CC(=O)NCc2ccco2)C(=O)CCC(=O)Nc2nccs2)cc1 the results were RGS16-Gao HTS 100, HSV augment inactive and HSV augment primary fold 1.
CC(=O)Cn1c(CN2CC(C)CC(C)C2)nc2c1c(=O)n(C)c(=O)n2C (centres undefined) was read as RGS16-Gao HTS 92, GALR2 agonist -3.7, PKD1 kinase inh 1, HSV augment inactive and HSV augment primary fold 0.99.
`CC(C)(C)NC(=O)NC(=O)CN1CCN(c2ccccc2)CC1` gave RGS16-Gao HTS 104, PKD1 kinase inh -5, HSV augment inactive and HSV augment primary fold 0.95.
For CCOC(=O)c1ccc(NC(=S)NN2CCOCC2)cc1 the results were RGS16-Gao HTS 84, Insulin prom inh 5, GALR2 agonist -0.4, PKD1 kinase inh -9, HSV augment inactive, Insulin prom inh cell count 114 and HSV augment primary fold 0.88.
`O=C(COC(=O)CN1C(=O)C2CCCCC2C1=O)NC1CCS(=O)(=O)C1` (centres undefined) gave RGS16-Gao HTS 105, Insulin prom inh -7, GALR2 agonist -1.6, PKD1 kinase inh -5, HSV augment inactive, Insulin prom inh cell count 96 and HSV augment primary fold 0.99.
`Brc1ccc(-c2noc(COc3ccc4ccccc4c3)n2)o1` gave RGS16-Gao HTS 93, GALR2 agonist -0.1, PKD1 kinase inh 7, HSV augment inactive and HSV augment primary fold 0.82.
`Cc1cc(N2CC(C(=O)O)CC2=O)ccc1Br` (centres undefined) gave RGS16-Gao HTS 105, Insulin prom inh -69, GALR2 agonist -2.2, PKD1 kinase inh 4, HSV augment inactive, Insulin prom inh cell count 79 and HSV augment primary fold 1.
Screening Cn1/c(=N/N=C/c2ccc(Cl)c([N+](=O)[O-])c2)sc2ccccc21 returned RGS16-Gao HTS 108, Insulin prom inh 4, GALR2 agonist -0.3, PKD1 kinase inh 4 and Insulin prom inh cell count 73.
CCCCn1c(SCC(=O)c2ccccc2)nc2ccsc2c1=O was read as RGS16-Gao HTS 109, Insulin prom inh 15, GALR2 agonist 0.4, PKD1 kinase inh 10, HSV augment inactive, Insulin prom inh cell count 116 and HSV augment primary fold 1.1.
`O=C(O)/C=C/C(=O)Nc1ccc2c(c1)C(=O)c1ccccc1C2=O` gave RGS16-Gao HTS 111, HSV augment inactive and HSV augment primary fold 0.89.
Fc1ccc(C(CNC(=S)NC2CCCCC2)N2CCOCC2)cc1 (centres undefined) was read as RGS16-Gao HTS 91, PKD1 kinase inh -2, HSV augment inactive and HSV augment primary fold 0.99.
COc1nc(-c2ccccc2)cc(-c2ccc(OC)c(OC)c2)n1 was read as RGS16-Gao HTS 105, Insulin prom inh -11, GALR2 agonist 1.3, PKD1 kinase inh -1, HSV augment inactive, Insulin prom inh cell count 170 and HSV augment primary fold 0.88.
For CC1(C)C(c2ccc(Cl)cc2)=[N+]([O-])C2(CCCC/C2=N\O)N1O (centres undefined) the results were RGS16-Gao HTS 98, Insulin prom inh -36, GALR2 agonist 0.5, PKD1 kinase inh -2, HSV augment inactive, Insulin prom inh cell count 94 and HSV augment primary fold 1.1.
`Cc1nnc(SCC(=O)NC2CCCCC2)n1C1CCCCC1` gave RGS16-Gao HTS 97, Insulin prom inh -69, GALR2 agonist -1.9, PKD1 kinase inh -15, HSV augment inactive, Insulin prom inh cell count 135 and HSV augment primary fold 0.79.
For Cc1cccc(-c2noc(-c3ccccc3C(=O)NCc3ccco3)n2)c1 the results were RGS16-Gao HTS 97, HSV augment inactive and HSV augment primary fold 0.79.
Screening COc1ccc(CC(=O)Nc2ccc(S(=O)(=O)Nc3cc(C)on3)cc2)cc1 returned RGS16-Gao HTS 96, GALR2 agonist -1.0, PKD1 kinase inh -6, HSV augment inactive and HSV augment primary fold 0.93.
For CC(C(=O)Nc1cc([N+](=O)[O-])ccc1Cl)N1CCN(c2ccc(O)cc2)CC1 (centres undefined) the results were RGS16-Gao HTS 101, Insulin prom inh 72*, GALR2 agonist -1.5, PKD1 kinase inh -9, HSV augment inactive, Insulin prom inh cell count 127* and HSV augment primary fold 0.9.
Screening COc1cc(C(=O)O)ccc1OC(C)=O returned RGS16-Gao HTS 103, GALR2 agonist -0.8, PKD1 kinase inh 3, HSV augment inactive and HSV augment primary fold 0.81.
Screening Cc1ccc(NC(=O)CCCCCC2NC(=O)NC2C)cc1 (centres undefined) returned RGS16-Gao HTS 146, Insulin prom inh 8, GALR2 agonist -0.1, PKD1 kinase inh 9, HSV augment inactive, Insulin prom inh cell count 36 and HSV augment primary fold 0.9.
Screening Cc1ccc(CSc2nnc(-c3ccc4c(c3)OCO4)o2)cc1 returned RGS16-Gao HTS 94, Insulin prom inh -32, GALR2 agonist -1.6, PKD1 kinase inh 2, HSV augment inactive, Insulin prom inh cell count 117 and HSV augment primary fold 0.84.
